High-throughput results as filed in PubChem.
T cruzi repl: T. cruzi replication inhibition | actives 1.4% (n = 300,000) | inhibition, % (test concentration not listed) | T. cruzi beta-gal in NIH3T3, luminescence, 90 h;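 active = mean inhibition across valid replicates above about 55%, limit read from the data; inconclusive = mean below that limit but half or more replicates reach it; inactive = mean below it, under half of replicates reach it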;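 note: signal also drops with host cell toxicity which is not excluded here; 0% = plate median of DMSO wells and 100% = zero luminescence signal; higher percent means less beta-gal luminescence so fewer parasites; stock transfer was 50 nL into about 50 µL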
Beta cell apopt: blocks beta cell apoptosis | INS-1E cytokine-induced death, ATP luminescence, 48 h; percent of positive-control rescue, neutral wells zero | AID 435005 | protection from apoptosis, % (test concentration not listed) | actives 0.8% (n = 300,000);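 active = all replicates at 75% or more, or half of them and the mean; inconclusive = half reach 75% but not the mean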;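 note: 0% = cytokine-treated negative control wells and 100% = positive control rescue; higher means more ATP so stronger rescue from cytokine killing; wells of about 40 µL received 100 nL stock; the first replicate is given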
B2AR ag: activates human beta-2 adrenergic receptor causing internalization; actives 0.43% (n = 340,000); response, % (concentration not given with the values); Am2.2-beta2AR cells, FAP receptor internalization, flow cytometry; reference of the scale not given here;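 active = response above a set limit, near 3 SD of response in nonfluorescent compounds, cut at about 42% in these data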;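 note: stock transfer was 100 nL into about 11 µL; a reference agonist was the positive control; negative values mostly stem from fluorescent compounds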
Target sequence (P07550 whole entry, looked up): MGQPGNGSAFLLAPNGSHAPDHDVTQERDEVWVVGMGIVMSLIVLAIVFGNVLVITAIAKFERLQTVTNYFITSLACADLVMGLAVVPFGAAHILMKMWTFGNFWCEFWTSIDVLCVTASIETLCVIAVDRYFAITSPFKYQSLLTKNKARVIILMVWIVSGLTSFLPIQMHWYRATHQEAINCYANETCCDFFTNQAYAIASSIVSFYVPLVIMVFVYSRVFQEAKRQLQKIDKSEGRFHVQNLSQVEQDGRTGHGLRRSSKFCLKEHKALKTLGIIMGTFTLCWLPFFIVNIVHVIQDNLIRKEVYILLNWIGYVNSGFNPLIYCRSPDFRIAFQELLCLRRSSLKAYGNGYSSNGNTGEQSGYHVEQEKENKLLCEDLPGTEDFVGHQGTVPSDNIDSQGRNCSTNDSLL
Calb FLC: affects C. albicans growth with fluconazole | C. albicans CaCi-2 (fluconazole-resistant clinical isolate) + fluconazole, Alamar Blue growth, 48 h | growth inhibition, % (no concentration beside the values) | actives 0.57% (n = 300,000);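 active = most replicates above 75%; inconclusive = exactly half above 75%; inactive = most below 75%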;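 note: all wells also contain fluconazole at 8 µg/ml as a sub-toxic cotreatment; 0% = median of DMSO wells and 100% = median of geldanamycin control wells; wells of about 8 µL received 7.5 nL stock; the first replicate is given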
LANA-H2B inh: blocks KSHV LANA binding to histone H2A/H2B; actives 0.6% (n = 320,000); inhibition, % (no concentration beside the values); Q9QR71; cell-free LANA-H2A/H2B peptide, fluorescence polarization; in the data active = inhibition mostly above about 10%, no sharp cut-off; inactive = mostly below about 6.7%;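 note: stock transfer was 7.5 nL into about 10 µL; 0% = median of vehicle wells and 100% = median of positive control wells; one replicate is shown; the record names a cut of 25% in any replicate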
A1 inh: inhibitors of the anti-apoptotic protein A1, read as caspase activation; MEF A1-2A-BIM cells, Caspase-Glo 3/7 luminescence, 3 h; percent of clofoctol response, vehicle zero; caspase activation, % (no concentration beside the values); actives 0.066% (n = 330,000);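 active = over half of replicate activation scores above 10%, or exactly half above 10 with the replicate mean above 10; inconclusive = replicate mean below 10 yet half the replicates above 10; inactive = over half of replicates below 10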;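 note: wells of about 30 µL received 50 nL stock; many hits fall short of the cut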
RanGTP-Impb inh: inhibitors of RanGTP-importin-beta interaction, primary screen, biochemical, FRET, CFP-Ran, YFP-importin-beta, homogeneous; cell-free CFP-Ran/YFP-importin-beta FRET ratio; inhibition, % (no concentration beside the values); actives 1.1% (n = 300,000);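 active = most replicates above 15%; inconclusive = exactly half above 15%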;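 note: 0% = DMSO wells and 100% = Ran loaded with GDP instead of GTP; wells of about 40 µL received 100 nL stock; the first replicate is given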
UCH37 DUB inh: human UCH37 deubiquitinating enzyme inhibition. purified proteasome/UCH37, Ub-AMC cleavage fluorescence. inhibition, % (no concentration beside the values). Q9Y5K5. actives 0.33% (n = 330,000);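 active = mean of two replicates above 20%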;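 note: 0% = compound-free wells with enzyme and 100% = wells lacking proteasome; stock transfer was 100 nL into about 20 µL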
Target sequence (Q9Y5K5 whole entry, looked up): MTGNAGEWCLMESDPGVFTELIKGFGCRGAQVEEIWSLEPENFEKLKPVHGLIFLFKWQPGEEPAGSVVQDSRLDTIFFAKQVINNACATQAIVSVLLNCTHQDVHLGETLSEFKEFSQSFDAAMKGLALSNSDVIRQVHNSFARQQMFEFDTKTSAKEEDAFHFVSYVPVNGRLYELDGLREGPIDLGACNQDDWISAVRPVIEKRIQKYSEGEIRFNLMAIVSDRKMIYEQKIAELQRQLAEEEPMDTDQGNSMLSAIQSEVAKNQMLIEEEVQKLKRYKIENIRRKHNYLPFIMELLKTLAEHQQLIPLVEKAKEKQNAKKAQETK
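Assay system: Proteasome-bound UCH37. Buffer or medium: pH 7.4 Tris-HCl (50 mM) with ovalbumin, ATP-MgCl2, DTT. Incubation: 30 min preincubation with enzyme, 25 min cleavage at room temperature. Measured by: fluorescence, ex 355 nm, em 460 nm. Read-out basis: percent inhibition. Control set: wells without proteasome as full block, compound-free enzyme plus substrate as uninhibited.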
Active calls of the source: *; ? = inconclusive; nt = not tested or not shown. Not a hit list (roughly 4.3% active in at least one column).

SMILES	T cruzi repl	Beta cell apopt	B2AR ag	Calb FLC	LANA-H2B inh	A1 inh	RanGTP-Impb inh	UCH37 DUB inh
CC1(NC(=O)COc2ccccc2-c2ccccc2)CCS(=O)(=O)C1 (stereo not given)	-7	-5	-9	-9	-3.3	-0.1	0.1	-0.4
O=C(NCc1cccc(C(F)(F)F)c1)N1CCN(C(=O)c2ccccc2)CC1	nt	-6	-7	nt	4.5	0.1	nt	6.4
Cc1cc(/C=N/NC(N)=O)c(C)n1C1CCCCC1	-6	2	3	-3	-8.1	0.6	-1.9	nt
CCC1CCCCN1S(=O)(=O)c1ccc2c(c1)CCN2C(C)=O (stereo not given)	-6	0	-17	-1	9.3	-0.7	1.2	-2.0
CC1CCc2c(sc(NC(=O)Cn3nc(C(=O)O)c4ccccc4c3=O)c2C#N)C1 (stereo not given)	-1	-1	32	5	-2.8	0.6	3.3	1.0
CC(C)(CO)NC(=O)CC1C(=O)NCCN1Cc1ccc(-c2ccccc2)cc1 (stereo not given)	-5	-4	6	-5	0.1	0.3	-1.8	-7.0
C=CCOC(=O)C1CC=CCC1C(=O)Oc1ccc(F)cc1F (stereo not given)	-7	-9	8	3	3.2	1.0	2.7	3.3
COc1ccccc1NC(=S)N1CCc2cc(OC)c(OC)cc2C1	-3	2	-5	26	-3.5	-0.4	3.7	-6.7
CC(C)(C)NC(=O)C1Cc2ccccc2CN1S(=O)(=O)c1ccc(F)cc1 (stereo not given)	34	-7	-5	-6	6.5	-0.4	?	4.8
CCN(CC)S(=O)(=O)c1ccc(NC(=O)c2ccccn2)cc1	11	8	9	4	4.5	-9.1	-4.4	2.8
CCC(=O)c1ccc(OCC(=O)NC2CCCC2)cc1	nt	0	1	nt	nt	1.1	nt	5.5
CC(C)CNc1nc(N)c([N+](=O)[O-])c(NCC2CCCO2)n1 (stereo not given)	-6	-8	-3	-26	1.3	-0.5	2.3	7.2

Already shown: 2 of the compounds above.
SMILES	T cruzi repl	Beta cell apopt	B2AR ag	Calb FLC	LANA-H2B inh	A1 inh	RanGTP-Impb inh	UCH37 DUB inh
CC1(NC(=O)COc2ccccc2-c2ccccc2)CCS(=O)(=O)C1 (stereo not given)	-7	-5	-9	-9	-3.3	-0.1	0.1	-0.4
O=C(NCc1cccc(C(F)(F)F)c1)N1CCN(C(=O)c2ccccc2)CC1	nt	-6	-7	nt	4.5	0.1	nt	6.4

More entries:
SMILES	T cruzi repl	Beta cell apopt	B2AR ag	Calb FLC	LANA-H2B inh	A1 inh	RanGTP-Impb inh	UCH37 DUB inh
CC1CN(C(=O)c2cnn3c(C(F)F)cc(-c4ccccc4)nc23)CC(C)O1 (stereo not given)	-17	-3	-3	-3	-1.4	1.5	5.1	-20
CCN(CC)C(=O)COc1ccc(C=O)cc1OC	12	-14	5	5	2.6	1.3	1.5	2.6
CCOc1ccc(N(CC(=O)NC2CCCC2)C(=O)CCCC(=O)Nc2ccccn2)cc1	-2	-5	-6	-11	3.2	2.1	-0.1	-0.9
CCOC(=O)N1CCN(C(=O)CCC(=O)c2ccc(OCC)cc2)CC1	-4	nt	-9	-2	0.0	-0.8	1.6	2.5
O=C(Nc1ccc2c(c1)nc1n2CCOC1)C1CCCCC1	2	1	-7	-1	3.3	0.7	2.0	-1.0
COc1ccc(-n2c(C)cc(C(=O)CN3CCCCC3)c2C)cc1	8	3	8	-21	2.8	1.3	-2.7	3.6
CC(=O)N1c2ccc(S(=O)(=O)N3CCC(C(=O)NCc4ccccc4)CC3)cc2CC1C (stereo not given)	-11	2	-3	7	5.3	-1.1	-0.5	0.6
Cn1cc(S(=O)(=O)N2CCOCC2)cc1C(=O)Nc1cccc(Cl)c1	0	-2	4	-4	-2.6	0.3	1.1	4.6
CCCC(=O)Nc1ccc2c(c1)nc(CCN1CCCCC1)n2C	-10	-2	-4	10	-0.2	0.1	1.6	4.0
CCOC(=O)C1CCN(C(=O)CCS(=O)(=O)c2ccc3c(c2)n(C)c(=O)c(=O)n3C)CC1	1	4	-5	0	-4.0	-1.0	-2.0	4.0
Cc1ccc2nc(NC(=O)COC(=O)c3ccco3)sc2c1	-6	-6	14	-13	4.3	-3.3	5.4	1.8
CCOC(=O)N1CCC(=C(C#N)C(=O)Nc2cc(OC)ccc2OC)CC1	14	0	4	2	-0.1	0.7	-1.9	1.0
COc1ccc(C(=O)Nc2nc3nccc(-c4ccccc4)n3n2)cc1	5	2	-24	28	-1.4	0.3	0.7	0.5
CCC(=O)c1cc2c(cc1NC(=O)c1ccccc1)OCCO2	-1	-7	-2	11	-0.9	-0.1	2.8	-44
COc1ccc(/C=C/C(=O)NCCn2c(C)cc3ccccc32)cc1OC	19	-3	2	9	8.5	-0.3	6.0	3.1
CC(=O)c1cccc(NC(=O)CSc2ncc(C(=O)Nc3ccccc3)c(=O)n2C)c1	-14	-4	14	8	-3.2	-6.0	3.1	-82
CN1CCN(S(=O)(=O)c2cnccc2N2CCN(c3cccc(Cl)c3)CC2)CC1	56*	-1	-7	6	0.3	-2.4	3.2	5.8
CCOc1cc(-c2noc(CCCC(=O)NC3CCCCC3)n2)ccc1OC	14	1	-10	1	3.5	-0.5	-3.4	4.1
COc1ccc(C(=O)N2CC(=O)Nc3ccccc32)cc1S(=O)(=O)N1CCOCC1	-15	nt	-5	?	nt	nt	1.3	0.6
CC1CN(c2nc3c(c(=O)n(C)c(=O)n3C)n2Cc2c(Cl)cccc2Cl)CC(C)O1 (stereo not given)	13	11	1	8	0.2	0.2	-0.1	3.6
Cc1ccsc1/C=N/n1cnc2sc(C)c(C)c2c1=O	1	nt	1	3	-0.6	-4.9	-0.3	nt
Cc1ccc(S(=O)(=O)Nc2c(C)n(C)n(-c3ccccc3)c2=O)cc1C(=O)OC(C)C(=O)N(C)c1ccccc1 (stereo not given)	7	-6	-7	10	2.4	0.8	1.5	2.1
Cc1ccc(N(CC(=O)NC(C)(C)C)C(=O)CS(=O)CC(=O)Nc2ccc3c(c2)OCO3)cc1 (stereo not given)	-1	-5	-4	13	5.3	1.7	-2.5	0.8
O=S(=O)(NCCc1ccccn1)c1ccc(-c2ccccn2)s1	-3	-4	-7	-4	-1.5	-0.3	0.5	1.1
COc1ccc(CCNC(=O)C(=O)NCC2OCCN2S(=O)(=O)c2cc(F)ccc2F)cc1OC (stereo not given)	-7	-11	-4	4	4.4	?	-2.2	4.1
Cc1cnc(C(=O)OCC(=O)NCCCc2ccccc2)cn1	-2	5	-1	-1	4.8	1.1	-4.5	0.0
O=C1CCC(C(=O)OCC(=O)Nc2cc(Cl)ccc2F)=NN1	nt	-2	-1	nt	1.4	1.6	nt	-2.2
COc1ccc(-n2nc3c(c2NC(=O)c2ccco2)CS(=O)(=O)C3)cc1	-3	-6	2	-4	3.4	-0.5	?	2.0
O=S(=O)(c1cccc(COc2ccc(Cl)cc2Cl)c1)N1CCOCC1	30	1	-5	-12	10	0.1	3.9	1.9
O=C(Nc1nccs1)C1CCCN1S(=O)(=O)c1ccc(Cl)cc1 (stereo not given)	16	-3	-19	5	2.0	0.5	-6.1	4.9
CC(C)CCN1CCN(Cc2nc(-c3ccccc3)cs2)CC1CCO (stereo not given)	13	1	5	-15	-3.8	0.2	4.1	6.1
Cc1cc(S(=O)(=O)N2CCOCC2)ccc1OCC(=O)N1CCOCC1	-8	-1	1	3	1.0	0.5	-3.2	-0.6
C/C(=N\NC(=O)Cc1ccc(Br)cc1)c1cccnc1	-10	-4	-7	-5	-2.6	0.5	4.2	nt
Cc1ccc(C(CCN)c2ccco2)cc1 (stereo not given)	3	nt	-1	-7	-1.5	1.2	4.4	0.0
O=C(CCCc1c[nH]c2ccccc12)N[C@@H](Cc1c[nH]c2ccccc12)C(=O)O	-17	1	4	-2	3.1	0.7	-3.4	1.8
COc1cccc2cc(C(=O)c3ccccc3)oc12	-5	2	-94	-26	-3.1	-5.9	3.7	4.5

Part of the list above in order of molar mass, falling.
SMILES	T cruzi repl	Beta cell apopt	B2AR ag	Calb FLC	LANA-H2B inh	A1 inh	RanGTP-Impb inh	UCH37 DUB inh
O=C(CCCc1c[nH]c2ccccc12)N[C@@H](Cc1c[nH]c2ccccc12)C(=O)O	-17	1	4	-2	3.1	0.7	-3.4	1.8
C/C(=N\NC(=O)Cc1ccc(Br)cc1)c1cccnc1	-10	-4	-7	-5	-2.6	0.5	4.2	nt
Cc1cnc(C(=O)OCC(=O)NCCCc2ccccc2)cn1	-2	5	-1	-1	4.8	1.1	-4.5	0.0
Cc1ccc(C(CCN)c2ccco2)cc1 (stereo not given)	3	nt	-1	-7	-1.5	1.2	4.4	0.0

(next part)
SMILES	T cruzi repl	Beta cell apopt	B2AR ag	Calb FLC	LANA-H2B inh	A1 inh	RanGTP-Impb inh	UCH37 DUB inh
CCS(=O)(=O)N1CCC(C(=O)N2CCN(c3ccccc3)CC2)CC1	6	2	1	-7	2.0	-0.3	-7.1	1.1
CCn1c(SCC(=O)c2ccc(O)c(O)c2)nnc1-c1ccccc1OC	-28	-5	5	96*	3.0	-1.0	8.3	5.1
CC(C)CCn1c(SCC#N)nc2c(sc3ccccc32)c1=O	0	0	0	8	3.8	0.8	-0.6	-7.7
CCCc1cc(=O)[nH]c(N2CCN(Cc3ccc4c(c3)OCO4)CC2)n1	-3	0	-7	-3	0.6	-0.5	0.6	1.3
CCOC(=O)C1C(=O)C=C(c2ccc(NS(C)(=O)=O)cc2)CC1c1ccco1 (stereo not given)	8	-3	6	8	2.6	0.6	6.3	-7.2
COC(=O)C(NNc1ccccc1)(NC(=O)c1cccc(F)c1)C(F)(F)F (stereo not given)	-13	-3	3	-8	1.0	-0.4	0.6	-1.6
Cc1c(S(=O)(=O)c2ccccn2)c(N)n(Cc2cccc(Cl)c2)c1C	8	nt	-16	3	nt	nt	-2.6	7.0
C=CCNC(=S)/N=c1/scc(C)n1C	-19	-5	-2	-9	-5.4	0.0	-0.2	nt
CCCCn1c(=O)c(-[n+]2ccccc2)c([O-])c2ccccc21	-12	1	-4	-12	1.4	-0.8	-2.1	0.1

3 entries drawn at random from the list so far, as already listed:
SMILES	T cruzi repl	Beta cell apopt	B2AR ag	Calb FLC	LANA-H2B inh	A1 inh	RanGTP-Impb inh	UCH37 DUB inh
CCCCn1c(=O)c(-[n+]2ccccc2)c([O-])c2ccccc21	-12	1	-4	-12	1.4	-0.8	-2.1	0.1
C=CCNC(=S)/N=c1/scc(C)n1C	-19	-5	-2	-9	-5.4	0.0	-0.2	nt
CCOC(=O)C1C(=O)C=C(c2ccc(NS(C)(=O)=O)cc2)CC1c1ccco1 (stereo not given)	8	-3	6	8	2.6	0.6	6.3	-7.2
